gsp antagonist – gsp mutant antagonism | gsp-mutant cells, cAMP HTRF, 30 min; control for the full effect not named in the record | Potency, µM (doses to about 76.9 µM), for the others: at the highest dose activity change, negative = inhibition, most hits filed as inhibitors | 340,000 tested, 0.4% active | AID 624288; active = falling curve of any shape with a large fitted effect; inconclusive = falling curve, mostly with a smaller effect; inactive = flat or rising curve; cell line not stated here;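 further: intracellular cAMP measured with PDE inhibitor Ro 20-1724 present during compound exposure; potency means the concentration at half of the fitted maximal effect; on the % scale 0 is the no-effect control and ±100 the full control effect; nearly all actives have a fitted effect of over 65% in size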
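Cells in G418 medium, seeded 16-24 h, 37C; buffer exchange to DPBS + 1 mM CaCl2, 0.5 mM MgCl2, 0.05% BSA; cpds in DMSO + […] (300 uM stock), 30 min 37C; HTRF cAMP detection.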
Menin-MLL FL inh – inhibitors of human menin-MLL interaction, wild-type MLL peptide. 290,000 tested, under 10 active. FP activity change, % at 61.4 µM. Fluorescence polarization, fluorescein-MLL peptide displacement from menin; inconclusive = falling polarisation curve, or a change in total fluorescence; inactive = total fluorescence flat and polarisation flat or rising; no compound was filed as active; the % refers to the polarisation; negative = inhibition;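 further: % of control where 0% means no effect; inhibitors lower the polarisation; unlabelled MLL peptide was the positive control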
CtBP-E1A blk – blocks the CtBP interaction with E1A; AlphaScreen GST-E1A/His-CtBP binding, 1536-well; hits give low values; control for the full effect not named in the record; activity change, % (no concentration beside the values); 340,000 tested, 0.49% active; in the data active means activity change below about -65%; inconclusive means about -30% to -65%; inactive means above about -30%; further: on the % scale 0 is the no-effect control and ±100 the full control effect; compound concentration not given in the record
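GST-E1A and His-tagged CtBP (125 nM each as 5X stock) were preincubated with pin-transferred compound for 2 h at 37 °C in the dark, then glutathione donor and nickel acceptor beads were added for 1 h before AlphaScreen reading.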
gsp ag – gsp mutant agonism; gsp mutant cells, cAMP HTRF, 30 min; control for the full effect not named in the record; Potency, µM (doses to about 76.9 µM), for inactives: at the top dose activation (cAMP increase), most hits filed as activators; 340,000 tested, 0.13% active; active = well fitted activation curve with a large enough effect; inconclusive = small, poorly fitted or top-dose-only effect, or another doubt; inactive = no such curve, though single readings can be large or run the other way; cell line not stated here;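 further: phosphodiesterase inhibitor Ro 20-1724 added with compounds to block cAMP breakdown; potency means the concentration at half of the fitted maximal effect; nearly all actives have a fitted effect of over 60% in size; about a fifth of the inactives were tested at one dose only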
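Cells stably selected in G418 were plated at 2000/well, grown 16-24 hr, then given compounds in DMSO with the PDE inhibitor […] (300 uM solution added) for 30 min at 37C; cAMP was read by HTRF.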
ClpP mod – qHTS Assay for Activators of ClpP | Potency, µM (doses to about 57.5 µM), for the others: at the highest dose activity change, negative = active | 340,000 tested, 1.9% active | ATP-dependent Clp protease proteolytic subunit (Bacillus subtilis (strain 168)), P80244 | purified B. subtilis ClpP, FRET peptide cleavage, 20 min | AID 651965, 2013; active = well fitted falling curve with a large enough effect; inconclusive = small, poorly fitted or top-dose-only effect; inactive = no such curve, though single readings can be large or run the other way; further: potency means the concentration at half of the fitted maximal effect; the source files actives as falling curves though it sought activators and does not explain the sign; nearly all actives have a fitted effect of over 65% in size; many hits overshoot -100%
Target sequence (P80244 whole entry, looked up): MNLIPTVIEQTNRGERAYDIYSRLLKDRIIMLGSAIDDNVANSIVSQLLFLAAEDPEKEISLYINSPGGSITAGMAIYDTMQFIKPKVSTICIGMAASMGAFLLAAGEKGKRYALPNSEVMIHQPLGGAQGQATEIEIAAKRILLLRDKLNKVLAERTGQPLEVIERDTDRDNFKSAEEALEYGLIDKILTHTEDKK
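FRET quenching reversal measured ClpP activation: 10 microg/mL B. subtilis ClpP at pH 8 with the FRET-FV decapeptide, read at 430 nm after 320 nm excitation. The 20-min minus 0-min signal was scaled between DMSO/no-enzyme wells and ADEP (5.8 microM final).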
TRPV1 PAM – enhances activation of the human vanilloid receptor TRPV1 | Q8NER1 | TRPV1-expressing cells, Fluo-8 calcium influx, capsaicin EC20 potentiation; host cell line not named in the record; control for the full effect not named in the record | potentiation, % at 8.33 µM | 320,000 tested, 0.02% active; active means potentiation above 80%; inconclusive means 30% to 80%; inactive means below 30%; further: 0% is about no effect
Target sequence (Q8NER1 whole entry, looked up): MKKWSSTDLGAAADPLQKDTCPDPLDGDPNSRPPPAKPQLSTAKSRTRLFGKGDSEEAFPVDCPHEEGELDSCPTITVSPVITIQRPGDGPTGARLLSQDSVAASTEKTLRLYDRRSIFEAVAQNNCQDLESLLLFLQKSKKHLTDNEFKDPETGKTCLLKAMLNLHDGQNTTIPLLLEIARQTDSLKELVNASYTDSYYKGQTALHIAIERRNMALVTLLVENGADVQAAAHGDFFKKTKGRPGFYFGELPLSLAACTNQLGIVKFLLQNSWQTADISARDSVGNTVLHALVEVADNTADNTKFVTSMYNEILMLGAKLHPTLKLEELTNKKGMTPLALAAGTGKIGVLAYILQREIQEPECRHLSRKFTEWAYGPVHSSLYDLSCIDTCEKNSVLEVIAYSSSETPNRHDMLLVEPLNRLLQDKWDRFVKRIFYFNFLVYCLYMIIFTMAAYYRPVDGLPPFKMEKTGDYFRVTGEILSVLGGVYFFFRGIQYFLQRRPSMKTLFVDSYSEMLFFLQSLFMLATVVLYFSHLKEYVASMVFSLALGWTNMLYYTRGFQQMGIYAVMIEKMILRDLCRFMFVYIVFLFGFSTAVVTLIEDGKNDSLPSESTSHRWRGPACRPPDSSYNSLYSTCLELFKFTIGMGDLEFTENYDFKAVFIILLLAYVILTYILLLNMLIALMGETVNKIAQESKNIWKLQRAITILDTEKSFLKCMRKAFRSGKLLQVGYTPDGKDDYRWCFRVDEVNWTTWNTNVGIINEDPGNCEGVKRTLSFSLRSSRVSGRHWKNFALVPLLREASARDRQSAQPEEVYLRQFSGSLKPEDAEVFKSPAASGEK
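TRPV1-expressing cells were cultured overnight at 35.5C and loaded with Fluo-8 calcium dye for 40 to 90 min at room temperature. After a 10 s baseline, compound was added and calcium influx was read kinetically for 3 min (ex 480/em 520 nm).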
Sfp PPTase inh – blocks B. subtilis Sfp PPTase activity | Q9F4F7 | Biochemical Sfp PPTase activity, qHTS | Potency, µM, for inactives: max response, negative = inhibition, usual class: inhibitors | 310,000 tested, 3.5% active | AID 1490; active means well fitted inhibition curve with a large enough effect; inconclusive means small, poorly fitted or top-dose-only effect, or another doubt; inactive means no such curve, though single readings can be large or run the other way;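 further: the enzyme is Sfp with the accession as filed and its product quenches rhodamine fluorescence; potency means the concentration at half of the fitted maximal effect; 0% = enzyme reaction without inhibitor and -100% = no enzyme wells; top concentration of the series not given in the record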
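Compounds were incubated with enzyme (final 15 nM) for 15 min at room temperature before substrate addition started the reaction. Fluorescence at 525 nm excitation, 598 nm emission was recorded immediately and after 30 minutes.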
The depositor's hits bear a star; ? = inconclusive; . = not tested or not shown; & = joins results of further samples; [ ] = dose if it differs, or a comment.

SMILES | gsp antagonist | Menin-MLL FL inh | CtBP-E1A blk | gsp ag | ClpP mod | TRPV1 PAM | Sfp PPTase inh
Cc1ccccc1C(=O)Nc1ccccc1C(=O)N/N=C\c1ccco1 | -11% | 1.0 | -2 | -1% | -0.2% | 7 | 3%
O=c1c(Cl)c(N2CCN(S(=O)(=O)c3ccc(F)cc3)CC2)cnn1-c1cccc(Cl)c1 | -1% | -0.2 | -3 | 3% | -2.1% | . | 10%
CC(C)(C)OC(=O)N1Cc2cc3ccccc3nc2C1 | . | . | -2 | -76%[inhibitor] | -1.5% | . | .
CN(C)S(=O)(=O)c1ccc(NC(=S)NC(=O)C2CCC2)cc1 | 3% | 0.0 | -13 | 9% | -2.7% | 2 | 10%
Cn1c(Cc2cccs2)nnc1SCC(=O)Nc1ccccc1 | 3% | . | -6 | -2% | -4.3% | 4 | 11%
COc1ccccc1C(=O)COC(=O)CSC(C)C(=O)Nc1cc(C)on1 (configuration not stated) | -2% | . | 8 | 7%[15.4 µM] | 1.1% | 8 | .
COc1ccc(N(CC(=O)NC2CCCCC2)C(=O)CNC(=O)c2cccs2)cc1OC | -18% | 4.8 | 3 | 7% | . | 23 | 9%
CCOc1ccc2ccccc2c1/C=N/NC(=O)CNC(=O)Cc1ccccc1 | -5% | 14 | -3 | 2% | -12% | 1 | ?
S=C(NCCSCc1ccc(Cl)cc1Cl)Nc1ccccc1 | -19% | -0.1 | -8 | -28% | -2.3% | -6 | 15%
CC(NC(=O)c1ccccc1)C(c1cccs1)N1CCOCC1 (configuration not stated) | 3% | 0.0 | 1 | 38% | 1.3% | -16 | 22%
CC1CC(C)(C)CC2(C1)NC(=O)N(CC(=O)N1CCN(S(=O)(=O)c3ccc(F)c(F)c3F)CC1)C2=O (configuration not stated) | -1% | . | 5 | 0% | -0.1% | . | .
Cc1ccccc1-c1nnn(CC(=O)Nc2ccc3c(c2)OCCO3)n1 | 2% | 3.9 | 4 | 0%[15.4 µM] | . | 20 | -7%
CCN(CC)c1ccc(/C=N/NC(=O)c2ccc3nc[nH]c3c2)cc1 | -3% | 5.1 | -11 | ? | . | . | 3%
COc1cc(C2C3=C(Nc4ncnn42)c2ccccc2CC3)cc(OC)c1OC (configuration not stated) | 14% | 2.5 | -21 | -14% | -23% | -10 | -11%
CC1CCCCC12NC(=O)N(CC(=O)N1CCN(Cc3ccc(C#N)cc3)CC1)C2=O (configuration not stated) | 2% | . | -10 | 7% | 0.2% | -2 | .
Cc1ccc(OCC(=O)Nc2ccc3c(c2)nc(CCN2CCN(c4ccccn4)CC2)n3C)cc1 | . | . | -7 | -69%[inhibitor] | -3.8% | . | .
CC1(C)Cc2ccccc2-c2nc(NN)[nH]c(=O)c21 | -4% | -9.9 | 0 | 24% | 3.9% | 26 | ?
CC(C)COc1ccc(-c2nn(-c3ccccc3)cc2/C=C2/SC(=S)N(CC(=O)O)C2=O)cc1 | -7% | 8.8 | . | ? | 1.8% | ? | -21%
COC(=O)[C@@]1(Cc2ccc(F)cc2)[C@H]2c3cc(C(=O)N(C)C)n(Cc4ccc(OC)c(OC)c4)c3C[C@H]2CN1C(=O)c1ccccc1 | -19% | 3.7&0.6 | -6 | 5% | -0.7% | -18 | -15%&-2%
CCOc1ccc(S(=O)(=O)NCCC(=O)NCCc2ccc(C(C)C)cc2)cc1 | -13% | . | 3 | 1% | -1.4% | -20 | .
O=C(NCc1ccc(Cl)cc1)N1CCc2ccccc2C1 | -11% | -6.7 | 2 | -3% | . | 15 | 11%
O=C(NCc1ccco1)C(c1cccnc1)N(C(=O)Cn1nnc2ccccc21)c1ccccc1 (configuration not stated) | 5% | 3.7 | -8 | 16% | 2.4% | 10 | -24%
Cc1nnc(SCC(=O)NNC(=O)c2ccco2)n1-c1ccccc1 | 12% | 3.6 | 2 | 6%[15.4 µM] | 0.4% | -1 | -8%
CC(/C=C/c1ccccc1)=N/NC(=O)c1cc([N+](=O)[O-])cc([N+](=O)[O-])c1 | 10% | . | 8 | 11% | -3.4% | -14 | ?
COc1ccc(C2C(C(N)=O)=C(C)Nc3nc(-c4ccccc4Cl)nn32)c(OC)c1 (configuration not stated) | 2% | 1.5 | -1 | -71%[inhibitor] | -7.6% | -3 | 11%
Next part
SMILES | gsp antagonist | Menin-MLL FL inh | CtBP-E1A blk | gsp ag | ClpP mod | TRPV1 PAM | Sfp PPTase inh
Cn1c(CNc2ccccn2)c(C#N)c2ccccc21 | 5% | 2.7 | 0 | 3% | -1.3% | 5 | 13%
Cc1ccc(S(=O)ONc2cccc(NOS(=O)c3ccc(C)cc3)c2)cc1 (configuration not stated) | . | . | 6 | -23% | -0.7% | . | .
COc1cc(OC)c(NC(=O)CCc2ccccc2)cc1Cl | 30% | 2.6 | 1 | 26% | 1.7% | 9 | 3%
COc1ccc2c(c1OC)C(=O)OC2Nc1nc(-c2ccc(-c3ccccc3)cc2)cs1 (configuration not stated) | -16% | 0.8 | -11 | ? | 16µM* | 19 | ?
S=C(c1ccccc1)N1CCCC1 | 6% | 0.0 | 11 | -2%[15.4 µM] | -0.5% | 8 | 9%
C[n+]1c2n(c3ccccc31)N=C(c1ccc(Br)cc1)CS2 | -7% | -0.1 | -1 | 9% | 2.0% | 7 | -16%
CCOC(=O)N1CCN(C(=O)c2cn(C)c3ccc(S(=O)(=O)N4CCC(C)CC4)cc3c2=O)CC1 | 3% | 3.2 | 6 | ? | . | -11 | 21%
COC(=O)c1c(C)[nH]c(C(=O)COC(=O)Cc2ccc3c(c2)OCCO3)c1C | -25% | 1.9 | 3 | ? | -0.5% | -10 | 5%
Cn1c(SCC(=O)Nc2ccc(F)cc2)nnc1-c1cccnc1 | 1% | 0.3 | 6 | 19% | 0.7% | ? | 10%
Cc1cc(S(=O)(=O)NCc2cccnc2)ccc1F | 7% | 4.9 | 8 | 25% | . | -2 | 9%
COc1ccc(N2C(=O)C(C)C(Cc3ccc(C)cc3)C2=O)cc1 (configuration not stated) | -13% | 2.2 | 3 | 14%[15.4 µM] | -0.9% | -15 | 5%
COc1ccccc1CCC(=O)Nc1ccc2c(c1)CN(Cc1ccc(CO)o1)CC2 | 0% | -5.6 | -5 | -2%[15.4 µM] | -4.7% | 1 | -11%
CCOc1ccccc1-n1nnnc1SCC(=O)NCC1(N2CCOCC2)CCCCC1 | -30% | . | 16 | -6% | 0.8% | -5 | .
COc1cccc(OCc2cc(C(=O)N3CCN(C(C)=O)CC3)no2)c1 | 5% | . | . | -32% | -1.5% | 3 | 13%
Cc1ccc(CNC(=O)CS(=O)(=O)Cc2nc(-c3ccc(C)cc3)oc2C)cc1 | -16% | -3.5 | 0 | ? | ? | 18 | 5%
O=C(NCC1OCCc2ccccc21)c1ccc(NC(=O)c2ccc(Cl)cc2)cc1 (configuration not stated) | 17% | 0.5 | -6 | -2%[15.4 µM] | -16% | -1 | 4%
CCOC(=O)Cc1c[nH]c2ccc([N+](=O)[O-])cc12 | -2% | . | -18 | -2% | . | . | .
Cc1ccc(NC(=S)N/N=C/c2c(C)nn(-c3ccccc3)c2N2CCCC2)cc1 | -27% | 0.3 | -5 | 10%[15.4 µM] | -19% | 2 | -5%
CCOC(=O)c1c(/N=C/c2ccc(C)cc2O)sc2c1CCN(C)C2 | ? | 0.1 | -10 | -33%[15.4 µM] | . | -6 | 17%
O=C(NNS(=O)(=O)c1ccccc1Cl)C1COc2ccccc2O1 (configuration not stated) | 0% | . | 4 | -9% | 0.0% | . | .
COC(=O)COc1ccc(S(=O)(=O)Nc2ccccc2C(=O)OC)cc1 | ? | 3.9 | 8 | -1% | -0.2% | -6 | 20%
Cc1cc(NC(=O)COn2nnc3ccc(Cl)cc32)no1 | 4% | 7.6 | 0 | -19% | -0.8% | -7 | 9%
O=C(Nc1cccc(Cl)c1)NC1CC2CCC1C2 (configuration not stated) | -9% | -0.2 | 9 | -11% | -0.3% | -8 | -6%
Cc1cc(C)n(-c2ccc(NC(=O)C3CCCCN3C(=O)c3ccc(C)s3)cc2)n1 (configuration not stated) | -19% | . | -2 | 2% | -1.1% | -1 | -1%
Cc1ccc(CNS(=O)(=O)c2ccc3c(c2)N(C)CCO3)cc1 | 3% | . | -3 | ? | -6.0% | 3 | 1%
Following part
SMILES | gsp antagonist | Menin-MLL FL inh | CtBP-E1A blk | gsp ag | ClpP mod | TRPV1 PAM | Sfp PPTase inh
CC(C)OCCCNC(=O)C1CCC(=O)N1C1CCCC1 (configuration not stated) | 5% | -0.8 | 2 | -3% | 0.5% | 7 | 21%
Cc1ccc2nc(N3CCOCC3)c3nncn3c2c1 | 7% | 2.4 | 2 | ? | -6.1% | -4 | 6%
CC(=O)N(Cc1ccccc1)c1c(N)nc(N)[nH]c1=O | 2% | . | 0 | 5%[15.4 µM] | . | . | .
CCCc1ccc(Oc2cc(C)nc(N3CCOCC3)n2)cc1 | -4% | 1.3 | 24 | 13% | -6.7% | 27 | -11%
COc1ccc(-c2c(C#Cc3ccsc3)c3cc(-c4ccc(CN5CCOCC5)cc4)ccc3n2C)cc1 | 10% | . | 4 | -3% | 3.5% | . | .
COc1cc(NC(=O)c2ccccc2)c(OC)cc1NC(=O)CN1C(=O)NC2(CCCCC2)C1=O | 1% | . | -5 | -9% | 1.1% | ? | .
COc1cccc(NC(=O)CS(=O)(=O)c2cccc3nsnc23)c1 | 6% | -0.9 | 8 | -3%[15.4 µM] | . | -1 | -12%
CCOc1ccc(/C=N/Nc2ccccc2)cc1 | -8% | 7.3 | . | -27% | 4.2% | ? | -5%
COc1ccc(-c2nn(-c3ccccc3)cc2/C=C2/SC(=S)N(CCCC(=O)O)C2=O)c(C)c1 | 32µM* | -1.4 | -15 | -66%[inhibitor] | . | -11 | 56µM*
COCCNC(=O)C(C)OC(=O)c1cc2occc2n1C (configuration not stated) | 1% | 0.6 | -3 | 3% | -1.3% | -3 | 3%
O=C(CCC(=O)Nc1nnc(C2CCCCC2)s1)Nc1ccc(F)cc1 | 7% | -1.9 | 2 | 7% | . | -1 | ?
Cn1cccc1/C=N\NC(=O)C1COc2ccc(C(C)(C)C)cc2O1 (configuration not stated) | 8% | . | . | 2% | -0.1% | 1 | 5%

Screening data: PubChem, National Center for Advancing Translational Sciences (NCATS)
